Screens as filed in PubChem BioAssay.
HTT promoter inh – inhibits huntingtin promoter activity | HEK293 HTT promoter firefly luciferase reporter (activity 0% = vehicle and -100% = no light), 24 h | Potency, µM (top dose mostly 57.5 µM), without a hit: top-dose activity change, negative = inhibition, most hits filed as inhibitors | 0.93% of 48,000 active; active = well fitted inhibition curve with a large enough effect; inconclusive = small, poorly fitted or top-dose-only effect; inactive = no such curve, though single readings can be large or run the other way; also: nearly all actives have a fitted effect of over 50% in size
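HEK293 Fluc reporter, 2,500 cells/well, 24 h pre-culture; cpds up to 57.5 uM final, 24 h 37 degrees C; Dual-Glo, 10 min RT; normalized vehicle = 0%, zero RLU = -100%.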
PMP22 txn – modulators of PMP22 gene transcription in S16 Schwann cells. S16 Pmp22-F2sN Schwann cells (luciferase reporters placed in the Pmp22 gene), FLuc/NLuc coincidence luminescence, 24 h. Potency, µM (titrated, usually from 57.5 µM), without a hit: at the top dose activity change, negative = inhibition, actives largely listed as inhibitors. 2% of 43,000 active; active = clear falling dose curves in both reporters; inconclusive = both reporters move, but less clearly or upward; inactive = either reporter flat; the % is the NLuc reporter signal; also: % is scaled to controls: 0 for no effect and ±100 for the full control effect; some results filed as inactive show a strong effect at the top dose
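Schwann cells carrying the coincidence reporter were exposed to library compounds for 24 h at 37C, then lysed and read for FLuc and, after quenching, NLuc luminescence on a CCD imager.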
Active calls of the source: *; ? = inconclusive; . = no result given; & = joins results of further samples; [ ] = another dose, or the depositor's remark. Potency is read from the fitted curve at half-maximal effect.

SMILES	HTT promoter inh	PMP22 txn
Cc1nc2sccn2c(=O)c1S(=O)(=O)NCc1ccccc1	-9.3%	-7.4%
COc1ccc(-c2noc(CN3CCN(c4ccccc4OC)CC3)n2)cc1OC	-22.5%	-11.9%
CC1CCN(C(=O)c2ccccc2NC(=O)c2nsc3ccccc23)CC1	-0.1%	-34.8%
O=c1oc2cc(O)ccc2cc1-c1nc(-c2ccc(Cl)c(Cl)c2)cs1	-11.0%	4.1%
CC1=C(C(=O)Nc2cccc(Cl)c2C)C2(CCCCCC2)OC1=O	-17.4%	?
CCOC(=O)c1c(C)oc2nc(C)nc(NCCc3ccc(S(N)(=O)=O)cc3)c12	-28.4%	-13.4%
O=C(O)c1cccc(NC(=O)c2cccc(S(=O)(=O)Nc3cccc(F)c3)c2)c1	0.3%	10.8%
Cc1ccc(N2CCN(C(=O)c3cccn4c(=O)c5ccc(Cl)cc5nc34)CC2C)cc1 (centres undefined)	15.0%	-7.1%
Cc1cccc(OCCCC(=O)Nc2sc3c(c2C(N)=O)CCC(C)C3)c1 (centres undefined)	-26.0%	?
CSc1ccc(CCNC(=O)c2ccc3c(Cl)c4c(nc3c2)CCCC4)cc1	-13.0%	?
CC(=O)Nc1nonc1-c1nnc(SCC(=O)Nc2cc(Cl)ccc2C)n1C	-17.6%	-5.4%
CCCC12CN3CC(CCC)(CN(C1)C3c1ccc(OC(C)C)cc1)C2=O (centres undefined)	-17.3%	-0.7%
COc1ccc(NC(=O)CSc2nc(-c3cc(OC)c(OC)c(OC)c3)[nH]c2-c2ccc(F)cc2)cc1	-23.9%	?
O=C(CC1N=C2c3ccccc3N=C(SCc3ccc(Cl)cc3)N2C1=O)NC1CCCCC1 (centres undefined)	1.0%	0.2%
CC(C)c1noc(-c2ccccc2OCC(=O)Nc2cccc([N+](=O)[O-])c2)n1	-3.5%	-25.0%
Cn1cc(C[C@@H](N)C(=O)O)c2ccccc21	-6.6%[25.2 µM]	.
Cc1ccc(NC(=O)C2CCCN(c3ncnc4onc(-c5ccc(F)cc5)c34)C2)c(Cl)c1 (centres undefined)	5.6%	-24.5%
COc1ccc(N2CC(NC(=O)c3ccc(S(=O)(=O)N4CCCCC4)cc3)CC2=O)cc1OC (centres undefined)	-32.8%	2.6%
CC1Cc2ccccc2N1C(=O)CSc1nc2ccc(NC(=O)COc3ccccc3)cc2s1 (centres undefined)	-32.1%	-15.1%
CCOc1ccc(CCNC(=O)c2cnc3c(-c4ccc(F)cc4)c(C)nn3c2C)cc1	-16.1%	-27.6%

Arranged by length of the SMILES (low to high): some entries from above
SMILES	HTT promoter inh	PMP22 txn
Cc1nc2sccn2c(=O)c1S(=O)(=O)NCc1ccccc1	-9.3%	-7.4%
CCCC12CN3CC(CCC)(CN(C1)C3c1ccc(OC(C)C)cc1)C2=O (centres undefined)	-17.3%	-0.7%
O=C(O)c1cccc(NC(=O)c2cccc(S(=O)(=O)Nc3cccc(F)c3)c2)c1	0.3%	10.8%
COc1ccc(NC(=O)CSc2nc(-c3cc(OC)c(OC)c(OC)c3)[nH]c2-c2ccc(F)cc2)cc1	-23.9%	?

Going on with the list.
SMILES	HTT promoter inh	PMP22 txn
COCCNC(=O)c1cc(Sc2ccc(F)cc2F)nc2ccccc12	-24.9%	-1.0%
Cc1cc(C)c2c(c1)c(C)cc1nnc(SCC(=O)c3ccc(F)cc3)n12	-2.6%	-6.5%
COc1ccc(CNC(=O)CN2C(=O)CCn3nc(-c4cn(C)c5ccccc45)cc32)cc1	5.4%	?
O=C(Nc1cc(Cl)cc(Cl)c1)c1ccc(F)c(S(=O)(=O)NC2CCCCC2)c1	?	?
Cc1cccc(-c2nc(SCC(=O)Nc3ccc4c(c3)OCCO4)c(-c3ccccc3)[nH]2)c1	?	?
CCOC(=O)C1CCCN(C(=O)CCS(=O)(=O)c2cc3c(cc2Cl)NC(=O)CO3)C1 (centres undefined)	-10.0%	-5.3%
Cc1cccc(-n2c(N)cc(=O)nc2SCC(=O)Nc2ccc(F)cc2)c1C	-34.4%[11.5 µM]	20.7%
COc1cccc(N2CCN(Cc3cc(=O)oc4cc(C)ccc34)CC2)c1	-1.3%	-6.2%
CC(C)(C)NC(=O)CSc1nc(-c2ccc(F)cc2)cc(C(F)(F)F)n1	?	?
Cc1ccc(N2CC(NC(=O)/C=C\c3ccc4c(c3)OCO4)CC2=O)cc1 (centres undefined)	-37.7%	-3.0%
CC(=O)Nc1cccc(NC(=O)c2c(-c3ccccc3)c(-c3ccccc3)nn(C)c2=O)c1	-0.4%	14.4%
Cc1ccc(-n2c(=O)c3ccc(C(=O)NCc4ccccc4Cl)cc3n(Cc3cccc(F)c3)c2=O)cc1	-16.4%	?
CC(C)CCNC(=O)CN1N=C(c2ccc(Cl)cc2)CCC1=O	-11.8%	-14.8%
Cn1c2c(c(=O)n(C)c1=O)C(c1cc(Br)ccc1F)CC(=O)N2 (centres undefined)	0.0%	13.8%
COc1ccc(C)cc1N(C)C(=O)CCc1nc(-c2ccccc2F)no1	?	-14.0%
CCOC(=O)c1ccc(NC(=O)CN(c2ccc(C)cc2)S(=O)(=O)c2ccc(OC)cc2)cc1	-13.5%	-15.9%
Cc1ccc2sc(N(Cc3cccnc3)C(=O)CCS(=O)(=O)c3ccccc3)nc2c1C	-11.1%	?
CCOC(=O)C(C)Nc1ncnc2onc(C)c12 (centres undefined)	-7.4%	-7.6%
CCOC(=O)c1ccc(NC(=O)C(C)N(c2ccc(OCC)cc2)S(C)(=O)=O)cc1 (centres undefined)	-14.4%	-17.3%
Cc1ccc(F)cc1NC(=O)CCc1c(C)nn(-c2ccc(N3CCOCC3)nn2)c1C	-13.6%	?
CCOc1ccc(-c2nnc(SCC(=O)Nc3ccc(C)cc3C)o2)cc1	?	-3.6%
Cc1ccc(C(=O)c2cn(Cc3ccc(Cl)cc3)c3nc(C)ccc3c2=O)cc1	-13.9%	?
CCn1c(=O)n(CC)c2cc(N3CCCCC3)c(NC(=O)Nc3ccccc3Cl)cc21	?	?
COCCCN1C(=O)N(c2ccccc2)C(=O)C1CC(=O)Nc1ccc(F)cc1 (centres undefined)	-20.5%	17.2%
CCCCNc1nc2c(c(=O)n(Cc3ccccc3)c(=O)n2C)n1C	-4.9%	?
COc1cc(NC(=O)C2CCN(c3cnccn3)CC2)cc(OC)c1	-11.7%	-10.2%
COc1cccc(NC(=O)CSc2ncc(S(=O)(=O)c3ccc(C)c(C)c3)c(=O)[nH]2)c1	-3.4%	-63.6%
O=C(c1ccc2c(c1)N(Cc1ccc(F)cc1)C(=O)c1ccccc1S2(=O)=O)N1CCCCCC1	-36.1%	?
Cc1ccc(NC(=O)CCn2c(=O)c3cccn3c3ccccc32)c(Cl)c1	-23.1%	?
CCOC(=O)c1sc2ncn(CC(=O)Nc3ccc(F)cc3F)c(=O)c2c1C	-7.2%	0.2%
CC1CCCCN1CCCNC(=O)c1[nH]c2ccccc2c1Sc1ccc(Cl)cc1 (centres undefined)	-24.3%	?
Cc1ccc(NC(=O)Cn2c(=O)nc(-c3ccccc3)c3ccccc32)cc1F	-15.4%	-13.9%
Cc1ccc(NC(=O)Cn2c(=O)ccc3cc(S(=O)(=O)N4CCCC4)ccc32)cc1C	-18.8%	-22.0%
CCCOc1cccc(C(=O)Nc2cc(-c3ccccc3)no2)c1	34.7%[activator]	-2.5%
COc1ccccc1N1CCN(CC(O)COc2cc(OC)c(OC)c(OC)c2)CC1 (centres undefined)	12.0%	.
Cc1ccc(CNC(=O)c2ccc(CS(=O)(=O)c3ccccc3C)o2)cc1	-1.8%	?
Cc1cc(NC(=O)Cc2ccccc2)cc(-c2nc3ccccc3o2)c1O	-6.5%	-7.9%
CCN(CC)S(=O)(=O)c1nnc(NC(=O)COc2ccccc2Cl)s1	-10.9%	-37.3%
CN(C(=O)CSc1nc2ccc(NC(=O)CCc3ccccc3)cc2s1)c1ccccc1	?	?
CC(C)CN(CCNC(=O)c1cc(-c2cccs2)nc2ccccc12)CC(C)C	-2.1%	-21.9%
CCOC(=O)c1ccc2c(c1)N(CC(=O)Nc1cc(F)ccc1F)C(=O)c1ccccc1S2	-14.5%	-27.2%
COc1cc(OC)cc(C(=O)NCCc2csc(-c3cccc(C)c3)n2)c1	?	?
CCOC(=O)c1c(C)oc2nc(C)nc(NCCCN3CCN(c4ccc(F)cc4)CC3)c12	-0.5%	?
CCc1c(C)sc2c1CCN(Cc1cccc(OC)c1)C2c1ccccc1 (centres undefined)	?	9.46µM*
Cc1ccc(C)c(N2CCN(C(=O)C3CCCN(Cc4nc(-c5cccc(Cl)c5)oc4C)C3)CC2)c1 (centres undefined)	-5.1%	-7.7%
CCn1cc(C(=O)O)c(=O)c2cc(F)c(N3CCNCC3)cc21	0.0%&-7.8%	.
Cc1ccc(C)c(N2CCN(C(=O)c3ccc4c(c3)c(C)c(C)n4C)CC2)c1	-25.8%	-11.3%
COc1ccc(C(=O)Nc2cc(C(F)(F)F)ccc2N2CCN(c3ccccc3)CC2)cc1OC	-0.9%	-14.6%
Cc1cc(C)c2oc(-c3cccc(NC(=O)COc4ccccc4Cl)c3C)nc2c1	10.1%	?
Cc1nc(N2C(=O)c3oc4ccccc4c(=O)c3C2c2cccc(OCCC(C)C)c2)sc1C (centres undefined)	12.9%[11.5 µM]	-8.4%
CC(C)NC(=O)c1ccc(-n2c(-c3ccccc3)cc3c2CCCCC3)cc1	12.9%	?
Cc1cn([C@H]2C[C@H](N=[N+]=[N-])[C@@H](CO)O2)c(=O)[nH]c1=O	?	.
O=C(NCC(c1cccs1)S(=O)(=O)c1cccs1)c1c(F)cccc1F (centres undefined)	-15.8%	1.1%
COc1ccc(-n2c(=O)c3c4c(sc3n(Cc3ccc(C(C)(C)C)cc3)c2=O)CCC4)c(OC)c1	?	-17.3%
CCc1ccc(CN2CCc3nc(Nc4ccccc4)ncc3C2)cc1	-24.7%	-76.5%
CC(C)c1ccccc1NC(=O)CN1C(=O)c2cccc3cccc1c23	-29.2%	0.3%
Cc1ccccc1OCC(=O)Nc1ccc(S(=O)(=O)Nc2ncccn2)cc1	-7.6%	-29.4%
CCOC(=O)c1c(C)c(C(=O)NCCc2ccc(OC)cc2)c(C)n1C	2.8%	-1.7%
COc1ccc(-c2noc(CSc3nnc(C)n3-c3cccc(C)c3)n2)cc1	?	?
Cc1ccc2nc(-c3ccncc3)c(Nc3ccc(C(C)C)cc3)n2c1	-16.7%	?

Laid out differently: results already given
Values in the order: HTT promoter inh, PMP22 txn
Cc1nc(N2C(=O)c3oc4ccccc4c(=O)c3C2c2cccc(OCCC(C)C)c2)sc1C (centres undefined)
  12.9%[11.5 µM], -8.4%
Cc1ccc(C)c(N2CCN(C(=O)C3CCCN(Cc4nc(-c5cccc(Cl)c5)oc4C)C3)CC2)c1 (centres undefined)
  -5.1%, -7.7%
Cc1cn([C@H]2C[C@H](N=[N+]=[N-])[C@@H](CO)O2)c(=O)[nH]c1=O
  ?, .
CCOC(=O)c1c(C)c(C(=O)NCCc2ccc(OC)cc2)c(C)n1C
  2.8%, -1.7%
Cc1ccccc1OCC(=O)Nc1ccc(S(=O)(=O)Nc2ncccn2)cc1
  -7.6%, -29.4%

(continued)
SMILES	HTT promoter inh	PMP22 txn
CCc1ccc(NC(=O)C2CCN(c3nn4c(=O)cc(C)nc4s3)CC2)cc1	-14.1%	?
COc1ccc(Cl)cc1NC(=O)C(C)Sc1nc2c(c(=O)[nH]1)CCCC2 (centres undefined)	-18.9%	2.2%
CCOc1ccccc1-n1ccnc(NCc2ccc(F)cc2)c1=O	-19.5%	5.5%
CC(=O)Oc1cccc(C)c1	5.0%	.
CCOC(=O)c1ccc(-n2c(C)nc3c(cnn3-c3ccc(Cl)cc3)c2=O)cc1	-14.7%	-12.7%
COC1=CC(=O)C[C@@H](C)[C@]12Oc1c(Cl)c(OC)cc(OC)c1C2=O	-18.8%	.
Cc1ccc(CCNS(=O)(=O)c2c(C)nc3sc(C)c(C)n3c2=O)cc1	-1.8%	-7.1%
Cc1ccc(C2CC(=O)N(Cc3ccccc3)c3c2c(C)nn3-c2nc(C)cc(C)n2)cc1 (centres undefined)	-19.8%	-2.1%
CCOc1ccc(NC(=O)c2cc(S(=O)(=O)NC3CCCCCC3)ccc2F)cc1	?	?
Cc1ccc(N2CCN(C(=O)c3cn(C)c4ccc(S(=O)(=O)N(C)C5CCCCC5)cc4c3=O)CC2C)cc1 (centres undefined)	-17.3%[11.5 µM]	?
CCN1CCN(C(c2cccc(OC)c2)c2c(O)cc(C)n(Cc3ccco3)c2=O)CC1 (centres undefined)	-5.7%	3.4%
Cc1nn(C)c(C)c1CCNC(=O)Nc1cccc(Cl)c1C	5.9%	3.4%
CC(C)(C)c1ccc(C(=O)NCC(c2cccs2)S(=O)(=O)c2cccs2)cc1 (centres undefined)	?	?
COc1cccc(-c2cc(C(=O)Nc3ccc(C)cc3)[nH]n2)c1	53.8%[activator]	-5.8%
CN1C(=O)c2ccccc2Sc2ccc(NC(=O)Cc3c(F)cccc3Cl)cc21	?	-9.0%
COc1cccc(CNCCCSc2nnnn2C)c1	-18.0%	-9.5%
Cc1ccc(Nc2c(-c3cc(Br)ccc3F)nc3cc(C)ccn23)cc1	-25.2%	-5.5%
CCOc1ccc(-n2c(=O)c3c(C)c(C)sc3n(Cc3ccc(C(C)(C)C)cc3)c2=O)cc1	-22.6%	?

An unsorted share of the library. Share with any hit: about 2.6%.
